# MARV entry inh: Marburg virus entry inhibition | Potency, µM (doses to about 49.2 µM), for inactives: top-dose activity change, negative = inhibition, actives largely listed as inhibitors | Marburg virus pseudotype entry/binding inhibition, cell-based; control for the full effect not named in the record; many of its hits are not listed in these tables | actives 6.5% (n = 18,000) | AID 720532; active means well fitted inhibition curve with a large enough effect; inconclusive means small, poorly fitted or top-dose-only effect; inactive means no such curve, though single readings can be large or run the other way; tested in HEK293 cells; note: luciferase read-out
# Lassa entry: Lassa virus entry inhibition. Lassa virus pseudotyped entry inhibition, cell-based qHTS; control for the full effect not named in the record; many of its hits are not listed in these tables. Potency, µM (titrated, usually from 49.2 µM), for the others: top-dose activity change, negative = inhibition, usual class: inhibitors. actives 4.1% (n = 18,000). AID 720533; active = well fitted inhibition curve with a large enough effect; inconclusive = small, poorly fitted or top-dose-only effect; inactive = no such curve, though single readings can be large or run the other way; tested in HEK293 cells; note: luciferase read-out
# Starred values were filed as active, the others as inactive; u = inconclusive; x = not tested or not shown; ! = not active in a repeat; [ ] = remark or other dose. % is set by controls: 0 for no effect and ±100 for the full control effect; potency is the fitted concentration of half-maximal effect. Only part of the results is shown; the hit share may differ from the screen's.
1	CO/N=C(/C(=O)NC1C(=O)N2C(C(=O)O)=C(COC(N)=O)CSC12)c1ccco1 (stereo unspecified)
2	C[C@@H](O)CNC(C)(C)CC(=O)N[C@@H]1CCc2ccccc2N(Cc2ccc(-c3ccccc3-c3nn[nH]n3)cc2)C1=O
3	CC1=C(C)CC(c2ccccc2)C(C(=O)c2ccccc2O)C1 (stereo unspecified)
4	CCc1c(C(=O)OC)ncc2[nH]c3cc(OC)c(OC)cc3c12
5	COc1ccc2[nH]c(-c3ccc(F)cc3F)cc(=O)c2c1
6	COC(=O)[C@H]1[C@H](CCc2ccccc2)NC(=O)N(Cc2ccccc2)[C@H]1C
assay / entry	1	2	3	4	5	6
MARV entry inh	4.8%	10.7%	u	-11.9%	57.2%[activator]	-14.7%[8.59 µM]
Lassa entry	-4.2%	7.6%	-8.5%[8.59 µM]	-20.6%	34.4%[activator]	x

# Entries of single compounds, quoted from the list. Screens in order: MARV entry inh, Lassa entry
# CO/N=C(/C(=O)NC1C(=O)N2C(C(=O)O)=C(COC(N)=O)CSC12)c1ccco1 (stereo unspecified) is entered as 4.8%, -4.2%
# CCc1c(C(=O)OC)ncc2[nH]c3cc(OC)c(OC)cc3c12 is entered as -11.9%, -20.6%

# Next compounds follow.
7	COc1ccc(-c2cc3c(c4c2ccn4C)C2CCC3C2)cc1F (stereo unspecified)
8	CC1(OC(=O)C2CCCC2)C(=O)C=C2C=C(c3ccsc3)OC=C2C1=O (stereo unspecified)
9	C[C@@H]1COc2cc(N3CCCC3)ccc2S(=O)(=O)N1
10	O=S(=O)(c1ccccc1Br)N(Cc1ccccc1)CC(O)COCc1ccccc1 (stereo unspecified)
11	OC1(c2cccnc2)CCN(Cc2ccc3c(c2)CN(Cc2cccc4nccnc24)CCO3)CC1
12	C[C@]12CC[C@@H]3c4ccc(OS(=O)(=O)O)cc4CC[C@H]3[C@@H]1CCC2=O
assay / entry	7	8	9	10	11	12
MARV entry inh	-39.9%	6.3%	4.8%	-22.6%	u	10.4%
Lassa entry	x	0.8%	16.7%	-9.5%	-15.2%	0.8%

# Shown with bars between the fields: four of the compounds above.
no. | Compound | MARV entry inh | Lassa entry
7 | COc1ccc(-c2cc3c(c4c2ccn4C)C2CCC3C2)cc1F (stereo unspecified) | -39.9% | x
8 | CC1(OC(=O)C2CCCC2)C(=O)C=C2C=C(c3ccsc3)OC=C2C1=O (stereo unspecified) | 6.3% | 0.8%
9 | C[C@@H]1COc2cc(N3CCCC3)ccc2S(=O)(=O)N1 | 4.8% | 16.7%
10 | O=S(=O)(c1ccccc1Br)N(Cc1ccccc1)CC(O)COCc1ccccc1 (stereo unspecified) | -22.6% | -9.5%

# Continuation:
13	COc1cc(=O)n2c(c1C(=O)N(C)Cc1cscn1)CCN(C(=O)c1cccc(C)c1C)CC2
14	COC(=O)[C@@H]1CCCN1Cc1ccc2c(c1)CN(Cc1ccc3c(c1)OCCO3)CCO2
15	Oc1cc(Cl)ccc1Oc1ccc(Cl)cc1Cl
16	CC[C@@H]1CN2CC[C@@H]1C[C@H]2[C@H](O)c1ccnc2ccc(OC)cc12
17	O=C(Cn1cncn1)N1CCOc2ccc(CN3CCN(c4ccccc4)CC3)cc2C1
18	CCOC(=O)C=C1CN(Cc2ccc(OC)cc2)S(=O)(=O)c2ccccc21
19	CCC1(C2CCN(Cc3cc4ccccc4o3)CC2)NC(=O)N(CC2COc3ccccc3O2)C1=O (stereo unspecified)
20	C=C(C[C@@]1(C(=O)OC)C=C[C@@H](C)[C@H](c2ccccc2Br)N1C(=O)C(F)(F)F)c1ccccc1
21	CN(Cc1ccco1)Cc1cc(-c2ccnc3cc(Cl)ccc23)ccc1O
assay / entry	13	14	15	16	17	18	19	20	21
MARV entry inh	3.7%	u	35.5µM*!	31.6µM*	6.3%	u	31.6µM*	-13.5%[8.59 µM]	-13.8%
Lassa entry	-14.0%	10.1%	25.1µM*!	u	3.2%	-8.4%	-30.0%	-4.1%[8.59 µM]	-14.3%

# Single entries from the entries so far:
# entry 19 – MARV entry inh = 31.6µM*
# entry 13 – MARV entry inh = 3.7%
# entry 15 – Lassa entry = 25.1µM*!

# Assay outcomes from PubChem BioAssay.
